From PubChem BioAssay
Yeast UUG start = modulators of start codon recognition fidelity in yeast; 350,000 compounds, 0.13% hits; S. cerevisiae UUG-firefly luciferase reporter, luminescence/redox ratio; AID 602363; activity score, % at 18.7 µM;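 active means replicate mean at a twofold rise or more, about +100% in these data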;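 further: firefly luciferase made from a UUG start codon reports start codon fidelity; reporter light over untreated wells divided by growth signal over untreated wells; some hits fall short of that in this replicate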
* marks the source's active call; other numbers are inactive results. Only part of the results is shown; rates above refer to the full screens.

SMILES | Yeast UUG start
C[C@@H]1CN([C@@H](C)CO)C(=O)c2cccc(NC(=O)c3nc4ccccc4s3)c2O[C@H]1CN(C)S(=O)(=O)c1cn(C)cn1 | -4
COc1ccc(S(=O)(=O)N2CC[C@H]3[C@H](CO)Nc4ccc(-c5ccc(C#N)cc5)cc4[C@H]32)cc1 | 7
Cc1ccccc1S(=O)(=O)N1CCCCN2[C@H](CO)[C@H](c3ccc(-c4ccccc4)cc3)[C@@H]2C1 | 3
O=C([C@H]1[C@H](CO)[C@H]2Cn3c(ccc(C4=CCCC4)c3=O)[C@H]2N1Cc1nccs1)N1CCCCC1 | -5
CCNC(=O)Nc1ccc2c(c1)C(=O)N(C)[C@@H]1CC[C@H](CC(=O)NC3CCCCC3)O[C@@H]1CO2 | 28
CN1CCN(C(=O)C[C@H]2CC[C@@H]3[C@H](COC[C@@H](O)CN3Cc3cccc(Cl)c3)O2)CC1 | -13
O=C(Nc1ccccc1)N1C[C@H]2[C@@H](c3ccccc31)[C@H](CO)N2Cc1ccc(F)cc1 | 0
CCCNC(=O)Nc1ccc2c(c1)C(=O)N(C)C[C@@H](OC)[C@@H](C)CN(C(=O)C1CCC1)[C@@H](C)CO2 | 4
CC(C)NC(=O)N(C)C[C@@H]1Oc2ccc(NC(=O)Cc3cn(C)c4ccccc34)cc2C(=O)N([C@@H](C)CO)C[C@H]1C | 11
CS(=O)(=O)N1CCCCN2[C@H](CO)[C@@H](c3ccc(Br)cc3)[C@@H]2C1 | 13
CCCNC(=O)C[C@@H]1CC[C@H]2[C@@H](COC[C@H](O)CN2C(=O)c2ccccn2)O1 | -5
COc1ccc(S(=O)(=O)N(C)C[C@@H]2Oc3ccc(NC(=O)Cc4cn(C)c5ccccc45)cc3C(=O)N([C@H](C)CO)C[C@H]2C)cc1 | -14

Looked up one by one from the list above (two):
SMILES | Yeast UUG start
CCCNC(=O)C[C@@H]1CC[C@H]2[C@@H](COC[C@H](O)CN2C(=O)c2ccccn2)O1 | -5
COc1ccc(S(=O)(=O)N2CC[C@H]3[C@H](CO)Nc4ccc(-c5ccc(C#N)cc5)cc4[C@H]32)cc1 | 7

Later entries
SMILES | Yeast UUG start
C[C@@H]1CN([C@H](C)CO)C(=O)c2cc(NS(C)(=O)=O)ccc2O[C@@H]1CN(C)Cc1ccc(C(=O)O)cc1 | -1
C[C@H]1CN([C@@H](C)CO)C(=O)c2cccc(NS(=O)(=O)c3cn(C)cn3)c2O[C@@H]1CN(C)Cc1ccncc1 | -20
C[C@H]1CN([C@@H](C)CO)C(=O)CCCn2nncc2CO[C@@H]1CN(C)C(=O)Nc1ccc(C(F)(F)F)cc1 | 6
CN1C(=O)c2cc(NC(=O)c3ccc(Cl)cc3)ccc2OC[C@H]2O[C@@H](CC(=O)NCc3cccc(F)c3)CC[C@@H]21 | -9
COCC(=O)Nc1ccc2c(c1)OC[C@H](C)N(CC1CCCCC1)C[C@@H](C)[C@H](OC)CN(C)C2=O | -7
C[C@H](O)C#Cc1ccc([C@@H]2[C@H]3CN(S(=O)(=O)Cc4ccccc4)CCCCN3[C@H]2CO)cc1 | 27
C[C@@H]1CN([C@H](C)CO)C(=O)c2ccccc2-c2ccccc2CO[C@H]1CN(C)C(=O)Nc1cccc(F)c1 | 11
Cc1noc(C)c1NC(=O)N(C)C[C@H]1Oc2c(NC(=O)C3CCOCC3)cccc2C(=O)N([C@@H](C)CO)C[C@@H]1C | -13
O=S(=O)(c1ccccc1F)N1C[C@H]2[C@@H](c3ccccc31)[C@@H](CO)N2Cc1ccc2c(c1)OCO2 | 1
COCC(=O)N1[C@H](CO)[C@H]2c3ccccc3N(C)C[C@H]21 | -6
COc1cccc(-c2ccc([C@@H]3[C@H](CO)N4CCCCN(S(=O)(=O)c5cn(C)cn5)C[C@@H]34)cc2)c1 | -4
CCS(=O)(=O)Nc1ccc2c(c1)C(=O)N(C)[C@@H]1CC[C@H](CC(=O)NCc3ccc(OC)cc3)O[C@@H]1CO2 | 3
COc1cccc(-c2ccc3c(c2)[C@H]2[C@H](CCN2C(=O)C2CCC2)[C@@H](CO)N3)c1 | -4
COc1ccc(CN(C)C[C@H]2Oc3ccc(NC(=O)Cn4cnnn4)cc3CC(=O)N([C@H](C)CO)C[C@H]2C)cc1 | 2
C[C@@H]1CN([C@@H](C)CO)C(=O)Cc2cc(NC(=O)Cc3cn(C)c4ccccc34)ccc2O[C@H]1CN(C)S(C)(=O)=O | 17
CC(C)CC#Cc1ccc([C@@H]2[C@@H](CO)N3CCCCN(C(=O)Nc4ccccc4)C[C@@H]23)cc1 | -9
Cc1ccc(S(=O)(=O)N(C)C[C@H]2Oc3ccc(NC(=O)Nc4ccccc4)cc3CC(=O)N([C@@H](C)CO)C[C@H]2C)cc1 | 4
O=C(NCc1ccccc1Cl)[C@H]1[C@H](CO)[C@H]2Cn3c(cccc3=O)[C@H]2N1C(=O)C1CCCC1 | 16
CN1c2ccc(C#Cc3ccccc3F)cc2[C@@H]2[C@@H](CCN2C(=O)Cc2cccnc2)[C@H]1CO | -8
Cc1ccc(-c2ccc([C@H]3[C@@H](CO)N4CCCCN(C(=O)c5ccc(F)cc5)C[C@@H]34)cc2)cc1 | -4
C[C@@H]1CN([C@H](C)CO)C(=O)Cc2cc(NC(=O)Cc3cn(C)c4ccccc34)ccc2O[C@@H]1CN(C)C(=O)NC1CCCCC1 | -2
O=C(C[C@H]1CC[C@H]2[C@@H](COC[C@H](O)CN2C(=O)Nc2ccc(Cl)c(Cl)c2)O1)NCc1ccccc1 | -11
O=C(C[C@H]1CC[C@@H]2[C@H](COC[C@H](O)CN2Cc2ccc3c(c2)OCO3)O1)N1CCOCC1 | -9
COc1ccc(S(=O)(=O)Nc2ccc3c(c2)C(=O)N([C@H](C)CO)C[C@H](C)[C@@H](CN(C)CC2CCCCC2)O3)cc1 | -7
CO[C@H]1CN(C)C(=O)c2ccc(NS(=O)(=O)c3ccc(C)cc3)cc2OC[C@@H](C)N(Cc2nccs2)C[C@@H]1C | 5
O=S(=O)(NC[C@H]1[C@@H](c2ccccc2)[C@@H](CO)N1CC1CC1)c1ccccc1 | 16
O=C(c1ccc2c(c1)OCO2)N1CC[C@H]2[C@H](CO)Nc3ccc(-c4ccccc4)cc3[C@H]21 | 14
Cc1cccc(-c2ccc([C@H]3[C@@H](CO)N4CCCCN(S(=O)(=O)c5cccs5)C[C@@H]34)cc2)c1 | 3
CCC(=O)N1[C@H](CO)[C@@H]2c3ccccc3N(C(=O)CC(F)(F)F)C[C@@H]21 | 3
O=C(C1CC1)N1C[C@H]2[C@@H](c3ccccc31)[C@H](CO)N2C(=O)c1cccc(F)c1 | -2
C[C@H]1CN([C@@H](C)CO)C(=O)c2cccc(NC(=O)Nc3ccc(F)cc3)c2O[C@@H]1CN(C)Cc1ccc(Oc2ccccc2)cc1 | -2
C[C@H](CO)N1C[C@H](C)[C@H](CN(C)Cc2ccc(Cl)c(Cl)c2)Oc2ccc(NC(=O)Cn3cnnn3)cc2CC1=O | 10
CO[C@@H]1CN(C)C(=O)c2ccc(NS(=O)(=O)c3ccc(Cl)cc3)cc2OC[C@@H](C)NC[C@@H]1C | -6
CCCNC(=O)C[C@@H]1C[C@@H]2c3cc(NS(C)(=O)=O)ccc3O[C@@H]2[C@H](CO)O1 | -8
Cc1noc(C)c1NC(=O)N(C)C[C@@H]1Oc2c(NC(=O)C3CCOCC3)cccc2C(=O)N([C@H](C)CO)C[C@H]1C | -16
CCCC(=O)Nc1ccc2c(c1)C(=O)N(C)C[C@H](OC)[C@H](C)CN(Cc1ccc(-c3ccccn3)cc1)[C@H](C)CO2 | -6
Cc1noc(C)c1NC(=O)N(C)C[C@H]1Oc2c(NC(=O)c3cnccn3)cccc2C(=O)N([C@@H](C)CO)C[C@@H]1C | 1
CCCNC(=O)N1C[C@@H]2[C@H](c3ccccc31)[C@H](CO)N2Cc1ccccc1F | -11
COc1ccc(NC(=O)N(C)C[C@@H]2Oc3c(NC(=O)C4CCOCC4)cccc3C(=O)N([C@H](C)CO)C[C@H]2C)cc1 | 19
COCC(=O)Nc1ccc2c(c1)OC[C@@H](C)N(C(=O)Cc1ccccn1)C[C@H](C)[C@@H](OC)CN(C)C2=O | -3
C[C@@H]1CN([C@H](C)CO)C(=O)Cc2cc(NC(=O)Nc3ccccc3)ccc2O[C@H]1CN(C)CC1CCCCC1 | -9
CN(C)C(=O)c1ccc(-c2ccc([C@H]3[C@@H](CO)N4CCCCN(CCC(F)(F)F)C[C@H]34)cc2)cc1 | 2
CN(C)C(=O)[C@@H]1[C@@H](CO)[C@@H]2Cn3c(ccc(C4=CCCCC4)c3=O)[C@@H]2N1Cc1ccc2c(c1)OCO2 | 6
CC(C)CN(C[C@@H]1N[C@@H](CO)[C@H]1c1ccccc1)C(=O)CN(C)C | 11
N#Cc1cccc(-c2ccc3c(c2)[C@@H]2[C@@H](CCN2S(=O)(=O)c2ccccc2)[C@@H](CO)N3)c1 | 5
CC(C)NC(=O)Nc1ccc2c(c1)C(=O)N([C@H](C)CO)C[C@H](C)[C@H](CN(C)Cc1ccc3c(c1)OCO3)O2 | -11
OC[C@H]1[C@H](c2ccc(-c3cccnc3)cc2)[C@H]2CN(CC3CC3)CCCCN21 | -7
CO[C@H]1CN(C)C(=O)c2cc(NS(C)(=O)=O)ccc2OC[C@@H](C)N(C(=O)C2CC2)C[C@H]1C | 6

Reformatted with each value named: entries from further up.
Structure: COCC(=O)Nc1ccc2c(c1)OC[C@@H](C)N(C(=O)Cc1ccccn1)C[C@H](C)[C@@H](OC)CN(C)C2=O
  Yeast UUG start: -3
Structure: C[C@@H]1CN([C@H](C)CO)C(=O)Cc2cc(NC(=O)Nc3ccccc3)ccc2O[C@H]1CN(C)CC1CCCCC1
  Yeast UUG start: -9
Structure: CN(C)C(=O)c1ccc(-c2ccc([C@H]3[C@@H](CO)N4CCCCN(CCC(F)(F)F)C[C@H]34)cc2)cc1
  Yeast UUG start: 2

(listing goes on)
SMILES | Yeast UUG start
CCCNC(=O)C[C@H]1CC[C@H]2[C@@H](COC[C@H](O)CN2Cc2cccc(F)c2)O1 | -8
C[C@H](CO)N1C[C@H](C)[C@@H](CN(C)CC2CCCCC2)Oc2c(NC(=O)Nc3ccc(C(F)(F)F)cc3)cccc2C1=O | -2
COc1ccc(CN(C)C[C@@H]2Oc3c(NS(=O)(=O)c4c(C)noc4C)cccc3C(=O)N([C@H](C)CO)C[C@@H]2C)cc1 | -12
COc1ccc(NC(=O)N(C)C[C@@H]2Oc3ccc(NC(=O)Nc4ccc5c(c4)OCO5)cc3C(=O)N([C@H](C)CO)C[C@@H]2C)cc1 | 6
CN1CCN(C(=O)C[C@@H]2CC[C@@H]3[C@H](COC[C@@H](O)CN3CC3CCCCC3)O2)CC1 | -3
Cc1noc(C)c1NC(=O)Nc1cccc2c1O[C@H](CN(C)Cc1ccc(C(=O)O)cc1)[C@H](C)CN([C@H](C)CO)C2=O | -17
Cc1noc(C)c1NC(=O)N(C)C[C@H]1Oc2c(NC(=O)Nc3ccc(C(F)(F)F)cc3)cccc2C(=O)N([C@H](C)CO)C[C@H]1C | 3
CO[C@@H]1CN(C)C(=O)c2cc(NC(=O)Nc3ccc(F)cc3)ccc2OC[C@H](C)NC[C@@H]1C | 5
C/C=C/c1ccc([C@@H]2[C@@H](CO)N(C(C)=O)[C@@H]2CNC(=O)c2ccccc2)cc1 | -7
CCCNC(=O)[C@@H]1[C@@H](CO)[C@@H]2Cn3c(cccc3=O)[C@H]1N2C(=O)Nc1cc(F)ccc1F | 23
O=C(c1ccc(F)cc1)N1C[C@H]2[C@@H](c3ccccc31)[C@H](CO)N2C(=O)c1ccccc1 | 11
COc1cccc(-c2ccc([C@@H]3[C@H](CO)N4CCCCN(C(=O)c5ccc(F)cc5)C[C@@H]34)cc2)c1 | 27

Reformatted: entries from further up
smiles	Yeast UUG start
CCCNC(=O)C[C@H]1CC[C@H]2[C@@H](COC[C@H](O)CN2Cc2cccc(F)c2)O1	-8
C[C@H](CO)N1C[C@H](C)[C@@H](CN(C)CC2CCCCC2)Oc2c(NC(=O)Nc3ccc(C(F)(F)F)cc3)cccc2C1=O	-2

The results go on:
SMILES | Yeast UUG start
Cn1cnc(S(=O)(=O)N2CC[C@@H]3[C@H](CO)Nc4ccc(C#Cc5ccc(F)cc5)cc4[C@@H]32)c1 | -12
COCC(=O)N1CCCCN2[C@@H](CO)[C@@H](c3ccc(-c4ccccc4)cc3)[C@@H]2C1 | 4
OC[C@H]1Nc2ccc(-c3ccccc3)cc2[C@H]2[C@@H]1CCN2Cc1ccc(F)cc1 | -10
CO[C@H]1CN(C)C(=O)c2ccc(NS(C)(=O)=O)cc2OC[C@@H](C)N(C(=O)C2CCC2)C[C@@H]1C | 2
C[C@H]1CN([C@@H](C)CO)C(=O)c2cc(NS(=O)(=O)c3cccs3)ccc2O[C@H]1CN(C)S(C)(=O)=O | -12
CC(C)NC(=O)N1[C@@H](CO)[C@@H]2c3ccccc3N(C)C[C@@H]21 | -6
CCCC(=O)N1C[C@H]2[C@@H](c3ccccc31)[C@@H](CO)N2C(=O)CC1CC1 | -4
CCCC(=O)Nc1ccc2c(c1)OC[C@@H](C)N(Cc1cncnc1)C[C@H](C)[C@H](OC)CN(C)C2=O | -8
CO[C@H]1CN(C)C(=O)c2ccc(NS(=O)(=O)c3cccc(F)c3)cc2OC[C@H](C)N(Cc2cc(F)ccc2F)C[C@H]1C | 9
CC(C)C#Cc1ccc([C@H]2[C@@H](CO)N3CCCCN(C(=O)c4ccc(F)cc4)C[C@@H]23)cc1 | 11
O=C(Nc1cccc(F)c1)N1CCCCN2[C@H](CO)[C@@H](c3ccc(-c4ccccc4F)cc3)[C@@H]2C1 | 2
O=C(C[C@@H]1CC[C@H]2[C@@H](COC[C@H](O)CN2CC2CCCCC2)O1)NCc1ccc(Cl)cc1 | -9
Cc1ccc(-c2ccc([C@H]3[C@H]4CN(C(=O)Nc5ccccc5)CCCCN4[C@H]3CO)cc2)cc1 | 2
C/C=C/c1ccc([C@H]2[C@@H](CN(C)C(=O)c3ccccn3)N(C(C)=O)[C@H]2CO)cc1 | 51
